PABP FP inh = blocks human PABP binding to poly(A) RNA; P11940; fluorescence polarization; inhibition, % at 35 µM; 290,000 compounds, 1% hits;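 active = 50% or more with normal probe brightness, or confirmed in later tests; inconclusive = above 50% with abnormal brightness, or retests that disagree; inactive = below 50% or failed in later tests; about a fifth of its hits are not listed in these tables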;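 also: calls also rest on retests at 20 µM and on dose response follow-up; controls were probe without protein and protein plus probe with vehicle; some compounds called inactive have numbers as strong as hits; many hits fall short of the cut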
Target sequence (P11940 whole entry, looked up): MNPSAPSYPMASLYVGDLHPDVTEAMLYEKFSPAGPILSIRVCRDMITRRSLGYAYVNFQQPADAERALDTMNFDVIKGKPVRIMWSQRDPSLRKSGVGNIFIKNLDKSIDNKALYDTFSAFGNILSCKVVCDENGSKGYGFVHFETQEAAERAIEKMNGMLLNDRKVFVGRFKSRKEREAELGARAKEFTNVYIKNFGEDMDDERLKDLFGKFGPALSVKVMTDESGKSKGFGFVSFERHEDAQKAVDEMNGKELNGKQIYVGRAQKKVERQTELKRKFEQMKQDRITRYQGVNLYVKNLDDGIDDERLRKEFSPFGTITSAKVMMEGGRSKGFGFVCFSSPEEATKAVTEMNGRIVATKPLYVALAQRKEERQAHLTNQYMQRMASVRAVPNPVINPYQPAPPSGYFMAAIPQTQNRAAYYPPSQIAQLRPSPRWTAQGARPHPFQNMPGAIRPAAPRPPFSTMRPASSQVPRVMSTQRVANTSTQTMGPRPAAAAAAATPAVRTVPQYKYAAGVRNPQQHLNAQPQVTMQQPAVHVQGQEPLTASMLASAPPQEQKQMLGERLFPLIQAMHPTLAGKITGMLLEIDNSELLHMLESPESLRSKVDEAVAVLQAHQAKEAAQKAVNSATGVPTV
MT1-MMP act inh = MT1-MMP (human) activation inhibition | 360,000 compounds, 0.061% hits | HT1080 RFP-PRO-GFP cells, GFP/RFP ratio fluorescence, overnight; percent of plate control window, DMSO zero | AID 651647 | GFP/RFP ratio change, % at 20 µM;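 active = GFP/RFP ratio change of at least 30% with cell ATP level not reduced by more than half and red fluorescence within 50% of control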; also: strong numbers were not always called active
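Read-out: GFP/RFP fluorescence ratio; Test system: RFP-PRO-GFP reporter HT1080 cells; Compound dosing: single-point 20 µM compound, 1% DMSO; Times: overnight compound exposure at 37 °C.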
Env fusion inh = blocks HIV Env-driven cell-cell fusion | HeLa-JRFL Env/CEM21 cell fusion, luciferase | inhibition, % at 12.3 µM | 360,000 compounds, 1.1% hits | AID 651610;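 active = mean replicate inhibition score of at least 50 and every replicate individually at or above 50; inconclusive = only one of the two criteria met; inactive = mean below 50 and not all replicates reaching 50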;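 also: 0% = plate neutral controls and 100% = maraviroc near 300 nM; one replicate is shown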
eIF4H inh = inhibitors of RNA binding by human eIF4H; 290,000 compounds, 0.94% hits; inhibition, % at 35 µM; eIF4H fluorescence polarization binding assay;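 active = 50% or more with normal probe brightness, or confirmed in later tests; inconclusive = above 50% with abnormal brightness, or retests that disagree; inactive = below 50% or failed in later tests; about a fifth of its hits are not listed in these tables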;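 also: calls also rest on retests at 20 µM and on dose response follow-up; 0% = protein and probe with vehicle and 100% = probe without protein; strong numbers were not always called active; many hits fall short of the cut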
CSC inhib = blocks cancer stem cells. cancer stem cell-like cells viability, luminescence. inhibition, % at 7.5 µM. 300,000 compounds, 1.1% hits;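 active = mean at 75% or more and at least half the replicates too; inconclusive = mean and replicates disagree; tested in HMLE shEcad cells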;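 also: 0% = median of negative and 100% = median of positive control wells; the first replicate is given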
Rce1 inh = yeast Ras-converting enzyme inhibition; Q03530; AID 2563; yeast membranes, quenched prenylated peptide cleavage fluorescence; calls only; 290,000 compounds, 0.27% hits;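 active = fall in fluorescence gain of 50% or more versus controls, with final raw signal at or below 3038400; inconclusive = same 50% fall but final raw signal above 3038400; inactive = fall in fluorescence gain under 50%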;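 also: plate controls were neutral control wells for no effect and wells lacking membranes for full effect; tested at 10 µM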
Target sequence (Q03530 whole entry, looked up): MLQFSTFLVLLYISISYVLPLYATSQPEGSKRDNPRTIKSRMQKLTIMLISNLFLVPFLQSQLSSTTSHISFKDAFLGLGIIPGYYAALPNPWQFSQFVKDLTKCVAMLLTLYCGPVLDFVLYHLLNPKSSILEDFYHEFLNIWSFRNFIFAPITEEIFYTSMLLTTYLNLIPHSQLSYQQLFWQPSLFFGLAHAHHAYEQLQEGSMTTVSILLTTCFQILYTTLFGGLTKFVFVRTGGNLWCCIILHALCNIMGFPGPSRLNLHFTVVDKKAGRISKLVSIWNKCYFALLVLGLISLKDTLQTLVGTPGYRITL
Yeast UUG start = alters start codon recognition fidelity in yeast; S. cerevisiae UUG-firefly luciferase reporter, luminescence/redox ratio; activity score, % at 18.7 µM; 350,000 compounds, 0.13% hits;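 active = replicate mean at a twofold rise or more, about +100% in these data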;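 also: firefly luciferase made from a UUG start codon reports start codon fidelity; reporter light over untreated wells divided by growth signal over untreated wells; some hits fall short of that in this replicate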
eIF4H inh retest = further read-out of eIF4H inh, marked with its call; inhibition, %; compound at 20 µM; confirmation average;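 mean of two retest wells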
PABP FP inh retest = recorded beside PABP FP inh, whose call it bears; inhibition, %; compound at 20 µM; confirmation repeats;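 mean of two retest wells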
MT1-MMP act inh RFP = recorded beside MT1-MMP act inh, whose call it bears; RFP signal change, %; measured here: RFP expression control read;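 0 = vehicle wells; hits needed this value within 50% of zero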
* hit, by the source's call; i = inactive; ? = inconclusive; · = not tested or not shown. An excerpt; rates above refer to the full screens.

SMILES | PABP FP inh | MT1-MMP act inh | MT1-MMP act inh RFP | Env fusion inh | eIF4H inh | CSC inhib | Rce1 inh | Yeast UUG start | others
CCN(CC)CCCn1c2c(c(SCC(=O)Nc3cc(C)on3)nc1=O)CCC2 | · | -3 | 3 | -1 | · | 15 | i | -12
CCOc1ccc(NC(=O)CSc2nc3ccccc3c(=O)n2CCCC(=O)N2CCCC2)cc1 | -3 | 0 | 1 | 17 | -7 | -3 | i | -9
Cc1c(C=O)c(C=O)c(C)n1Cc1ccccc1 | 1 | -21 | -14 | · | -10 | 44 | i | -16
Cc1[nH]nc(SCC(=O)NCC(C)C)c1[N+](=O)[O-] | -6 | -1 | 0 | -2 | 10 | 10 | i | -22
Cc1ccc(NC(=O)N(CCC(=O)O)Cc2ccccc2)cc1 | 10 | -3 | 2 | -7 | -6 | -9 | i | -10
Cc1ccc(NC(=O)c2ccc(S(=O)(=O)NCc3ccco3)cc2)nc1 | · | -2 | -16 | -11 | · | · | i | -11
C=CCOc1ccc(/C(O)=C2/C(=O)C(=O)N(CCN3CCOCC3)C2c2ccc(C)cc2)cc1 (stereo not drawn) | 7 | -5 | -8 | 9 | 6 | -9 | i | -18
COc1cc2c(c(OC)c1OC)C(=O)CC2 | 5 | -1 | 0 | 0 | 3 | · | i | ·
CC(=O)Oc1ccc(OC(C)=O)c(SCCCCCN2CCOCC2)c1 | -3 | -15 | -7 | · | -17 | 3 | i | -18
COc1cc(OC)cc(C(=O)Nc2cc(C)nn2-c2ccccc2)c1 | -4 | · | · | -11 | -3 | · | i | -6
O=C(O)C1=CCCN(CCON=C(c2ccccc2)c2ccccc2)C1 | · | -2 | 1 | -15 | · | -12 | · | -13
O=C(CCSCc1ccc(Cl)cc1)NCc1cccs1 | -4 | 2 | 1 | -7 | 1 | 11 | i | ·
Cn1c(=O)[nH]c(=O)c2c1nc(SCC(N)=O)n2Cc1cccc(Br)c1 | -6 | 13 | 11 | 13 | -10 | 7 | i | -16
O=C(COc1ccccc1)N=C1SC2CS(=O)(=O)CC2N1c1ccc(F)cc1 (stereo not drawn) | -9 | -5 | 2 | 7 | -12 | -3 | i | -17
O=C(c1ccc2c(=O)n3c(nc2c1)CCCCC3)N1CCN(C(c2ccccc2)c2ccccc2)CC1 | 4 | -8 | -10 | 25 | -5 | 54 | i | 6
CN1CCCN(C(=O)C2CCC(C(=O)N3CCCN(C)CC3)CC2)CC1 (stereo not drawn) | -6 | -6 | 4 | -1 | 24 | -2 | i | ·
COc1ccc(Cc2nc3ccccc3n2CC(=O)N/N=C/c2ccccc2)cc1OC | -3 | -2 | -5 | 5 | 1 | -4 | i | ·
COc1ccc(-c2csc3ncnc(N4CCN(c5ccccc5O)CC4)c23)cc1 | 5 | -7 | -6 | · | 2 | 8 | i | -15
S=C(c1ccc(N2CCCC2)c(Br)c1)N1CCCCC1 | 9 | -2 | -3 | 9 | -1 | · | i | -31
COc1ccc(Cl)cc1C(=O)NNC(=O)CCNC(=O)c1ccccc1 | · | 0 | 2 | -22 | · | · | · | -17
CCN(CC)S(=O)(=O)c1cccc(-c2nnc(SCC#N)n2Cc2ccccc2)c1 | 9 | -5 | 0 | -92 | 8 | -7 | i | -18
CC(C(=O)NCC1CCCO1)N1C(=O)C2C3CC(C(Br)C3Br)C2C1=O (stereo not drawn) | 0 | 2 | 7 | -38 | -10 | -2 | i | 0
CCN1C[C@@H]2[C@@H]3C(=O)N(Cc4ccccc4)C(=O)[C@@H]3[C@](CC)(C1=O)N2C(=O)c1ccc(C(C)(C)C)cc1 | · | -2 | 0 | 68* | · | · | · | -11
COC(=O)c1sccc1NC(=O)CSc1ccccc1NS(=O)(=O)c1cc(Cl)ccc1Cl | 6 | 1 | -7 | -31 | -10 | 36 | i | -6
CCNC(=S)N1CCC(C(=O)c2ccc(Cl)cc2)CC1 | 3 | 8 | -5 | 13 | 2 | -7 | i | -34
Cc1cc(NS(=O)(=O)c2ccc(NC(=O)/C=C/c3c(F)cccc3Cl)cc2)no1 | 27 | 7 | -1 | -10 | -6 | -5 | i | -10
O=C1CN(C(=O)COC(=O)CNS(=O)(=O)c2ccccc2)c2ccccc2N1 | 0 | -9 | -3 | -1 | 2 | -2 | i | ·
COc1ccc(CCNC(=O)C23CCC(C)(C(=O)O2)C3(C)C)cc1OC (stereo not drawn) | 2 | -1 | 4 | 0 | 7 | -4 | i | ·
Brc1ccc(C2=Nn3cnnc3SC2)cc1 | 6 | -1 | -3 | i | 4 | -7 | i | -16
Cn1c(SCc2nc3ccccc3s2)nnc1-c1cccs1 | -6 | -5 | -4 | · | -7 | -9 | i | -11
Oc1ccc(-c2csc(-c3c[nH]c4ccccc34)n2)c(O)c1 | 2 | -4 | -5 | -255 | -6 | 90* | i | ·
C=C(C)CNC(=S)NNC(=O)CCn1c2ccccc2c2ccccc21 | -6 | -2 | -6 | -23 | 11 | 5 | i | -25
COc1ccc(CCC(=O)Nc2nccs2)cc1OC | 8 | 0 | 1 | 16 | -3 | -2 | i | -9
Cc1ccc(Cl)cc1NC(=O)Cn1c(C)csc1=O | · | 1 | 4 | · | · | -4 | · | -9
COC(=O)N/N=C(\C)c1ccc(Br)cc1 | -2 | -2 | 1 | · | -7 | -4 | i | -1
CCOc1ccc(CCNC(=O)C2CCN(S(=O)(=O)N3CCOCC3)CC2)cc1OCC | 5 | 0 | 4 | · | 9 | -8 | i | ·
COc1ccc([C@H]2CC(=O)C=C(c3cccc(Cl)c3)C2)cc1 | · | 4 | 1 | · | · | 10 | · | -4
O=C(COc1ccc(F)cc1)N(c1ccccn1)C1CCCCC1 | -1 | 4 | 9 | 12 | -9 | -6 | i | -24
COc1ccc(Cl)cc1S(=O)(=O)N(C)CC(=O)NCc1ccc2c(c1)OCO2 | -5 | 1 | -1 | -9 | -1 | 17 | i | -1
O/N=C1\CCCc2c1nc(-c1ccccc1F)n2O | -10 | 6 | 3 | 19 | 7 | 3 | i | -12
Cc1ccc(S(=O)(=O)N2CCOCC2)cc1NC(=O)c1cc2ccccc2oc1=O | · | -2 | -1 | -7 | · | -1 | · | -21
Cc1ccc(S(=O)(=O)Nc2cc(S(=O)(=O)N3CCCCC3)ccc2N2CCOCC2)cc1 | -5 | 1 | 7 | 6 | -4 | -1 | i | ·
CSCC(C)N1CCC(n2nccc2NC(=O)CCc2ccccc2)CC1 (stereo not drawn) | 32 | -4 | 3 | 0 | 56 | · | i | -5 | eIF4H inh retest=36;PABP FP inh retest=40
Cc1cc(C)cc(NC(=O)c2cccc(NC(=O)C3C4CC5OC(=O)C3C5C4)c2)c1 (stereo not drawn) | -6 | 4 | 0 | · | -2 | -1 | i | ·
CC(C)(C)N(Cc1ccccc1)C(=O)CCc1ccccc1 | 5 | -9 | -7 | 17 | -2 | -10 | i | ·
CCc1cccc(NC(=O)C2CCN(S(=O)(=O)c3ccc4c(c3)CC(C)N4C(C)=O)CC2)c1 (stereo not drawn) | -4 | 4 | -30 | 68* | -5 | 6 | i | -10
Cc1cnc(CN(C)Cc2nc(Cc3cccc(C(F)(F)F)c3)no2)[nH]1 | -9 | 2 | 0 | 12 | -3 | 16 | i | -17
CCC(C)NC(=O)CN1C(=O)CC(C)(C)S(=O)(=O)c2ccccc21 (stereo not drawn) | -2 | 0 | 1 | -6 | 7 | -18 | i | -1
COCCNC(=O)c1ccc(CSCc2cccc(Cl)c2)o1 | 3 | 1 | -4 | 2 | -13 | -6 | i | 7
CC(C)(C)c1nc(SCC(=O)Nc2ccc(N3CCOCC3)cc2)c2ccccc2n1 | 6 | -6 | -11 | -7 | -6 | -2 | i | -13
O=c1c(O)cccc2cc(O)c(O)c(O)c12 | 94* | -6 | -2 | 56* | 102* | 32 | i | -35
CCCCn1nc2cc(C(=O)NCc3ccc4c(c3)OCO4)ccc2c1OCC | 4 | 1 | 0 | · | -2 | -2 | i | -10
CCN(CC)CCNC(=O)C1c2ccccc2Oc2ccccc21 | -6 | -3 | 1 | 9 | -12 | 14 | i | -7
O=C(CSc1nc(-c2ccccc2)cs1)Nc1ccccc1[N+](=O)[O-] | 38 | -3 | 2 | 11 | -16 | 18 | i | ·
CCN1CCN(C(=S)c2ccc(OCC(=O)Nc3ccc(OC)cc3)cc2)CC1 | · | -3 | -8 | · | · | 5 | i | -12
CCN(CC)C1CCN(C(=O)CCn2nnnc2CN2CCOCC2)C1 (stereo not drawn) | 9 | 0 | 3 | · | 7 | 0 | i | -5
CN(Cc1c(F)cccc1Cl)C(=O)c1ccc(NS(=O)(=O)c2ccc3[nH]c(=O)[nH]c3c2)cc1 | · | 5 | 1 | -11 | · | 17 | i | -1
O=C(Nc1ccc(Cl)c(S(=O)(=O)N2CCOCC2)c1)C1CCC1 | · | 6 | -3 | · | · | -9 | · | -13
O=C(COC(=O)c1ccc(OC(F)F)cc1)Nc1cccc(S(=O)(=O)NC2=NCCC2)c1 | · | 2 | 1 | · | · | -11 | · | -26
COc1ccc(-c2cc(C(=O)N3CC4(C)CC3CC(C)(C)C4)no2)cc1OC (stereo not drawn) | -16 | -7 | -9 | · | -2 | 83* | i | -8
Next results follow.
SMILES | PABP FP inh | MT1-MMP act inh | MT1-MMP act inh RFP | Env fusion inh | eIF4H inh | CSC inhib | Rce1 inh | Yeast UUG start | others
CCCc1n[nH]c(=S)n1Cc1ccco1 | 7 | 3 | 5 | 7 | 8 | -5 | i | -25
CC(=O)Nc1ccc(/C(C)=N/NC(=O)C2CC2c2ccccc2)cc1 (stereo not drawn) | -8 | 4 | 2 | 0 | 3 | -21 | i | 0
C#CCNC(=O)c1cccn1-c1ncc(C(F)(F)F)cc1Cl | 1 | -3 | 0 | 3 | -9 | 2 | i | ·
C=CCNC(=O)c1cnc(-c2ccccc2)nc1-c1ccccc1 | 7 | -5 | -1 | 16 | -2 | -4 | i | -3
Fc1ccccc1Cc1noc(CN2CCCC(CN3CCOCC3)C2)n1 (stereo not drawn) | -4 | 5 | 8 | -2 | -4 | -3 | i | -8
CCC1(C)CC(c2csc(N)n2)CCO1 (stereo not drawn) | -9 | -1 | 4 | -103 | -2 | -22 | i | -27
CC(C)(C)OC(=O)N1CCC[C@H]1C(=O)N/N=C/c1cccc2nccnc12 | -2 | 2 | 1 | 20 | -7 | 4 | i | -10
COc1ccc(C2(c3ccc(OC)cc3)NC(=O)N(Cn3nnc4ccccc4c3=O)C2=O)cc1 | -9 | -5 | -4 | 7 | -10 | 7 | i | 11
CCOC(=O)C1CCC(CNCc2ccccc2C)CC1 (stereo not drawn) | 4 | 1 | 2 | ? | -12 | 6 | i | -11
N#C/C(=C\c1ccccc1)C(=O)Nc1cc(S(=O)(=O)N2CCOCC2)ccc1N1CCCC1 | -6 | 1 | 6 | -13 | -14 | 1 | i | ·
CCn1c(/C=C/c2ccc([N+](=O)[O-])o2)nc2ccccc2c1=O | 76 | -97 | -24 | -350 | 84* | 68 | i | -4 | eIF4H inh retest=57*;PABP FP inh retest=39
Cc1ccc(-n2c(N)c(C(=O)NCc3cccnc3)sc2=S)cc1 | -2 | -4 | -8 | · | -11 | 21 | i | -20
O=C(CSc1n[nH]c(=O)n1C1CC1)NCc1ccccc1Cl | 10 | -3 | 2 | -3 | 5 | 0 | i | ·
